Screens as filed in PubChem BioAssay.
AID504770: E. coli YBA685 growth inhibition, screen for V. cholerae RctB inhibitors. E. coli YBA685 rctB-dependent plasmid, OD600 growth, 3 h; stronger effect = lower value. AID 504770. hit rate 0.27% among 130,000. z-score (concentration not given with the values);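 active = z-score under -2 on both plates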;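 note: wells of about 30 µL received 100 nL stock; score is relative to mean and SD of the test wells; the first replicate is given; strong numbers were not always called active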
Ba CapD inh: inhibitors of Bacillus anthracis CapD enzyme | AID 492967 | hit rate 0.23% among 140,000 | z-score (test concentration not listed) | purified CapD enzyme, fluorescence intensity read-out; stronger effect = lower value; some hits fall short of the stated cut;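 active = z-score under -4 in either of two replicates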;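 note: stock transfer was 100 nL into about 40 µL; score is relative to mean and spread of the plate; one replicate is shown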
Numbers without * were called inactive; / = not tested or not shown.

Structure,AID504770,Ba CapD inh
CC(C)(C)NC1CCCCC1NS(=O)(=O)c1ccccc1 (centres undefined),-0.5,67
O=C(CSc1ncn[nH]1)Nc1ccc(S(=O)(=O)N2CCCCC2)cc1,0.4,/
CC(Sc1nnc(C2CC2)n1C1CC1)C(=O)c1ccc(NS(C)(=O)=O)cc1 (centres undefined),0.95,/
COc1ccc(OCc2cn3cccnc3n2)cc1,-1.6,1.4
CCc1nn2c(=O)cc(N3CCNCC3)nc2s1,1.5,-0.02
COCc1cc(=O)[nH]c(-c2cccc(C)c2)n1,-0.05,0.61
CC(C)CC(NS(=O)(=O)c1ccc2c(c1)oc(=O)n2C)C(=O)NC1CCCc2ccccc21 (centres undefined),-0.45,-0.63
O=C(O)c1c2c(nc3ccccc13)CCC(c1ccccc1)C2 (centres undefined),-0.55,-0.68
O=C(Nc1csc(Cc2ccsc2)n1)Oc1ccccc1,0.6,0.17
COc1ccc(NS(=O)(=O)c2ccc3c(c2)N(C(C)=O)CC(C)O3)cc1OC (centres undefined),-0.4,-0.91
c1ccc(CCNc2nnns2)cc1,-0.8,0.9
O=C1C2=C(C(c3ccccc3)=NCCN2)C(c2cccc(F)c2)N1c1ccccc1 (centres undefined),/,-0.24
Cc1nnsc1-c1nnc(-c2ccccc2C(F)(F)F)o1,-0.5,-1.5
CCN(CC(=O)NCc1cccs1)c1ncnc2sc3c(c12)CCCC3,0.4,/
Clc1cccc(C2Nc3ccc4ccccc4c3C3C=CCC32)c1Cl (centres undefined),/,0.48
CCc1noc(C)c1C(=O)OCC(=O)NC12CC3CC(CC(C3)C1)C2,1.9,/
COc1nc2c(c(-c3ccco3)c1C#N)Cc1cc(NC(C)=O)ccc1-2,-0.3,77
CCN(CCN(C)C)S(=O)(=O)c1c(C)cccc1Cl,/,-0.35
COc1ccc(C2CC(C)=C(C#N)S(=O)(=O)C2C#N)cc1 (centres undefined),/,0.79
C=CCCCCCCCCCCCC(O)CC(O)COC(C)=O (centres undefined) (tested in a mixture with another compound),0.05,/
Cc1cc(O)c(C(C)C)cc1NS(=O)(=O)c1ccccc1,1.1,0.02
Cn1cnnc1SCc1nc(N)nc(Nc2ccccc2)n1,/,-0.38
Oc1cccc(-c2nc3ccc4ccccc4c3c3c2CCCC3)c1,0.6,-0.1
NC(=O)C1CCN(C(=O)c2ccc3c(=O)n(-c4ccccc4)c(SCC(=O)c4ccccc4)nc3c2)CC1,/,-0.2

Some values from above.
`CCc1noc(C)c1C(=O)OCC(=O)NC12CC3CC(CC(C3)C1)C2` | AID504770 = 1.9
`CCN(CC(=O)NCc1cccs1)c1ncnc2sc3c(c12)CCCC3` | AID504770 = 0.4
`Cc1cc(O)c(C(C)C)cc1NS(=O)(=O)c1ccccc1` | AID504770 = 1.1
`CCN(CCN(C)C)S(=O)(=O)c1c(C)cccc1Cl` | Ba CapD inh = -0.35
`Cn1cnnc1SCc1nc(N)nc(Nc2ccccc2)n1` | Ba CapD inh = -0.38

The list goes on:
Structure,AID504770,Ba CapD inh
Nc1cc(-c2ccccc2)nn1S(=O)(=O)c1ccccc1,-0.5,-0.6
O=S(=O)(Cc1nc(-c2ccc(Cl)cc2)cs1)c1ccccn1,0.5,-0.025
c1ccc(C2CC(c3cccs3)n3nnnc3N2)cc1 (centres undefined),-0.5,0.85
CN1OC(COC(=O)c2cc(Cl)cc(Cl)c2)CC12C1CC3CC(C1)CC2C3 (centres undefined),-0.8,0
CCC(CC)NC(=O)CSc1ccccc1,2,-0.04
CC(C)N(Cc1ccccc1)S(=O)(=O)c1cccc(C#N)c1,0.3,/
CN(C)c1scc(-c2ccc(Cl)cc2)c1C#N,-0.35,-0.01
Cc1ccc(Sc2ccc(NC(=O)c3c(F)cccc3F)cc2)cc1,/,0.17
Cc1ccc(C(=O)N/C(=C\c2cn(-c3ccccc3)nc2-c2ccccc2)C(=O)O)cc1,-0.6,-0.54
O=C(Nc1ccc2c(c1)OCO2)C(O)(c1ccccc1)c1ccccc1,-0.7,-0.045
COc1ccc(C(=O)Nc2ccc(-c3cn4cccnc4n3)cc2)cc1OC,1.5,115
O=C(Nc1ccc2c(c1)OCO2)C(=S)NCc1ccccc1,1.3,-1
Cc1nn(-c2ccccc2)nc1CNC(=O)c1ncoc1-c1ccccc1,-0.15,0.38
CCOc1ccc(N/C(SCc2ccc(C)cc2)=C(/C#N)C(=O)Nc2ccccc2)cc1,/,-0.31
COc1cccc(C(=O)NCc2nnc(SCC(=O)N3N=C(c4cccs4)CC3c3ccc(F)cc3)n2C)c1 (centres undefined),/,18
Cc1onc(-c2c(Cl)cccc2Cl)c1C(=O)O/N=C(\C#N)c1ccccc1,1.2,0.7
CCOC(=O)c1c(CN2CCN(c3ccccc3)CC2)n(Cc2ccccc2)c2cc(Br)c(O)cc12,/,-0.015
O=C(CSc1nnc(-c2cccnc2)n1-c1ccc(Br)cc1)c1c[nH]c2ccccc12,/,-0.36
CC1(C)OC(=O)C(=Cc2cccn2-c2ccc(S(N)(=O)=O)cc2)C(=O)O1,-0.25,-2.1
c1ccc(CCN2Cc3ccccc3C2)cc1,0.45,-0.24
N#Cc1nnn(-c2cc(Cl)cc(Cl)c2)c1N,-0.6,-0.14
CCOc1cc(C(=S)N2CCOCC2)ccc1OC,-1.2,-0.2
COc1cccc(Oc2nc3ncn(Cc4ccccc4)c3c(=O)n2C)c1,0.95,-0.065
CC(=O)N1CCCc2cc(S(=O)(=O)NC3CCCCC3)ccc21,0.15,0.84
OCCNc1nc(NCCO)c2cnn(-c3ccccc3)c2n1,0.5,/
O=C(N/N=C/c1ccccc1)c1[nH]ncc1I,0.35,/
COc1ccccc1C(=O)COC(=O)C1CCCCN1S(=O)(=O)c1ccccc1 (centres undefined),0.3,/
CC(=O)Nc1ccc(NC(=O)CSc2nc3ccccc3n2S(=O)(=O)c2ccc(Cl)cc2)cc1,/,-0.71
Oc1ccc(Cl)cc1C=NCc1ccccc1,-0.8,0.14
CCOc1ccc(-c2cc(O)cc3sc(=O)oc23)cc1,1.8,0.17
O=C(Nc1nc2nc(-c3ccccc3)cc(=O)n2[nH]1)C1CC1,-0.2,-0.26
Cc1ccc2nc(CN3NS(=O)(=O)c4ccccc4C3=O)cn2c1,-0.35,/
O=C(CCN1C(=O)/C(=C\C=C\c2ccco2)SC1=S)Nc1ccc(C(=O)O)c(O)c1,0.9,/
CCOC(=O)/C(=C(/C)Nc1ccc(F)cc1)C1CC(=O)N(c2cc(C)on2)C1=O (centres undefined),0.3,0.13
c1cn(CCCNc2ncnc3ccsc23)cn1,-0.55,-0.19
O=S(=O)(CC(c1ccccc1)N1CCOCC1)c1ccc(Cl)cc1 (centres undefined),1.1,-0.55
COc1ccc(N2C(=S)N=C(Nc3cccc(Cl)c3)C23CCC(C)CC3)cc1 (centres undefined),/,9.4
CC(C)(C)N1CC(CO)OC1=O (centres undefined),-0.35,-0.18
Cc1nc2sc(-c3ccccc3)cc2c(=O)n1-n1cccc1,0.8,-0.12
N#Cc1ccccc1S(=O)(=O)N1CCNCC1,-0.2,/
COC(CNC(=O)Cc1ccc(-n2c(=O)[nH]c3ccsc3c2=O)cc1)OC,-0.4,0.24
COc1ccc2nc(SCC(=O)c3cc4c5c(c3)CC(=O)N5CCC4)[nH]c2c1,1.5,/
Cc1cccc(C(=O)N2N=C(C(F)(F)F)CC2(O)c2ccc(Br)cc2)c1 (centres undefined),/,-1.9
OC(CSc1ccccc1)CN1CCN(Cc2ccc3c(c2)OCO3)CC1 (centres undefined),-0.05,0.91
CN1CCN(C(=O)c2ccc(N)cc2)CC1,-0.2,0.24
CCn1c2ccccc2c2cc(NC(=O)CN3CCN(S(=O)(=O)c4ccc(OC)cc4)CC3)ccc21,-0.15,8.9
O=C(Cc1csc(NC(=O)c2cccs2)n1)NO,0.15,/
CCc1ccc(N=Cc2c(O)ccc3ccccc23)cc1,-0.4,-1.9
CCOC(=O)C1=C(C)NC2=C(C(=O)C(C(=O)OCC)C(c3cccc(OC)c3)C2)C1c1ccc(OCC)cc1 (centres undefined),/,4.7
Brc1cc(C2CCCCC2)cc(Br)c1-n1cccc1,/,0.22
c1ccc(-c2cc(N3CCOCC3)c3ccccc3n2)cc1,-0.1,1.8
COc1ccc(O)c(C(=O)c2cnn3c(N)nnc3c2)c1,0.25,/
O=C(O)C1C2C=CC3(CN(C/C=C/c4ccccc4)C(=O)C13)O2 (centres undefined),0.85,0.075
O=C(CSc1nnc2ccccn12)Nc1cccc(C(F)(F)F)c1,/,1.7
Nn1c(SCc2ccc(Cl)cc2Cl)nnc1-c1cccs1,/,1.2
CCNC(=O)N1CCC(c2c[nH]c3ccccc23)CC1,/,-0.28
NN1C(=O)c2cccc3cccc(c23)C1=O,-0.05,/
COc1ccc(C(O)(C(=O)NN(C(=O)c2csc(C)c2)c2ccccc2)c2ccc(OC)cc2)cc1,/,-0.085
CN(C)c1nc(Sc2ccc(Br)cc2)cc(C(F)(F)F)n1,/,2
O=C(CSc1nnc(-c2ccncc2)n1-c1ccccc1)c1c[nH]c2ccccc12,/,-0.23

(listing goes on)
Structure,AID504770,Ba CapD inh
CC(C)N1CC2=C(OC(N)=C(C#N)C2c2cccnc2)/C(=C/c2cccnc2)C1 (centres undefined),-0.7,/
NC(=S)N/N=C/c1cccc(Br)c1,-0.5,-1.3
O=C(CSc1n[nH]c(=O)[nH]c1=O)N1CCCCCC1,-0.45,/
O=C(O)CCC(=O)N(Cc1ccccc1)Cc1ccccc1,-0.65,-0.17
c1cc(SSc2ccsc2)cs1,-1.2,/
CC(C)Cc1ccc(/C=C/C(=O)N2CCOCC2)cc1,0.55,-0.49
CCOC(=O)C(C)Oc1ccc2c3c(c(=O)oc2c1)CCC3 (centres undefined),-0.3,46
COc1ccc2ccccc2c1C1N(c2ccccc2)CCN1c1ccccc1,/,0.09
Fc1ccc(-c2nnn3c2nc(N2CCCC2)c2ccccc23)cc1,-0.6,0.49
COc1ccc(C(N)CC(=O)OC(C)C)cc1 (centres undefined),-0.45,/
CC1(C)CC(=O)C/C(=N/Nc2nc3ccccc3o2)C1,-0.3,/
CN(C)/C=C/c1nc(C(F)(F)F)c(C#N)s1,0,-0.95
Cn1ccnc1SCC(=O)Nc1ccccc1,-0.6,/
O=C1NC(=S)N(c2ccccc2)C(=O)/C1=C/c1cccn1-c1ccc(Br)cc1,/,0.095
CCCc1cc(=O)[nH]c(SCC(=O)N2CCN(c3ccccc3)CC2)n1,0.3,-1.6
COc1c(OC)c2occc2c2oc(=O)ccc12,0.05,0.29
COc1ccc2[nH]c(=O)c(CN(Cc3cccs3)C(c3nnnn3C(C)(C)C)C(C)C)cc2c1 (centres undefined),1.8,/
O=C(CCNS(=O)(=O)c1ccccc1)Nc1ccc(Br)cc1C(=O)c1ccccc1,1.5,-0.39
CCCN1C(=O)/C(=C/c2nc3ccccc3c(=O)n2-c2ccccc2[N+](=O)[O-])c2ccccc21,/,0.43
CCc1ccc(NC(=O)Nc2ccc3c(c2)N(CC)C(=O)c2ccccc2S3)cc1,0.1,-0.38
COC(=O)C(Cc1cn(C(c2ccccc2)(c2ccccc2)c2ccccc2)cn1)NC(=O)OCCn1nc(-c2ccccc2)cc1-c1ccccc1 (centres undefined),/,0.075
Cc1cc(SC(C)C(=O)NC(N)=O)nc2ccccc12 (centres undefined),1.3,/
O=C(NCCCc1ccccc1)C1CCN(c2nnc(-n3cccc3)s2)CC1,0.6,-0.07
COc1ccc(C2C(C(=O)Nc3ccc(C)c(F)c3)CC(=O)N2c2ccc(OC)cc2)cc1 (centres undefined),0.35,-0.15

The list goes on; it opens with the 5 that closed the last part.
Structure,AID504770,Ba CapD inh
CCc1ccc(NC(=O)Nc2ccc3c(c2)N(CC)C(=O)c2ccccc2S3)cc1,0.1,-0.38
COC(=O)C(Cc1cn(C(c2ccccc2)(c2ccccc2)c2ccccc2)cn1)NC(=O)OCCn1nc(-c2ccccc2)cc1-c1ccccc1 (centres undefined),/,0.075
Cc1cc(SC(C)C(=O)NC(N)=O)nc2ccccc12 (centres undefined),1.3,/
O=C(NCCCc1ccccc1)C1CCN(c2nnc(-n3cccc3)s2)CC1,0.6,-0.07
COc1ccc(C2C(C(=O)Nc3ccc(C)c(F)c3)CC(=O)N2c2ccc(OC)cc2)cc1 (centres undefined),0.35,-0.15
Cn1c2ccccc2c2cnn(CC(=O)NCc3ccc4c(c3)OCO4)c(=O)c21,2,-0.32
COC(CNC(=O)c1ccc2c(c1)N(Cc1cccc(Cl)c1)C(=O)c1ccccc1S2=O)OC (centres undefined),0.45,-0.7
N#CC1=C(N)C2=C(N3CCOCC3)CCCC2C1(C#N)C#N (centres undefined),-0.6,0.86
COc1ccc(C(C#N)C(C)C)cc1OC (centres undefined),-0.65,-0.79
FC(F)(F)c1cccc(NC2=NC(=S)N(c3cccc(Cl)c3)C23CCCCC3)c1,/,-0.32
CC(C)c1ccc(S(=O)(=O)NC2CC(C)(C)NC(C)(C)C2)cc1,-0.6,0.01
O=C(O)c1cn2c3c(cccc3c1=O)CC2,0.05,9.7
COC(=O)N/N=C/C1=CCC2CC1C2(C)C (centres undefined),-2,/
Oc1ccccc1/C=N/N1CCCCC1,0.05,/
CN(C)C(=S)SCc1nc(-c2ccc(Cl)cc2)no1,0.3,0.46
O=C(Nc1nc(-c2cccc([N+](=O)[O-])c2)cs1)c1cc2cc(Br)ccc2oc1=O,/,0.67

Single records, from the list above. Values in the order: AID504770	Ba CapD inh
CN(C)c1nc(Sc2ccc(Br)cc2)cc(C(F)(F)F)n1 across the screens: /	2
O=S(=O)(CC(c1ccccc1)N1CCOCC1)c1ccc(Cl)cc1 (centres undefined) across the screens: 1.1	-0.55

Not all compounds are listed, so the mix of outcomes need not match the whole.
